# Source: PubChem BioAssay
# HIV Env fusion: inhibitors of HIV-1 Env-driven cell-cell fusion, primary screen, HeLa-JRFL effector, CEM21 target cells, luciferase; inhibition, % at 12.3 µM; 360,000 tested, 1.1% active; AID 651610, 2012;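 active means mean replicate inhibition score of at least 50 and every replicate individually at or above 50; inconclusive means only one of the two criteria met; inactive means mean below 50 and not all replicates reaching 50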;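 further: 0% = plate neutral controls and 100% = maraviroc near 300 nM; one replicate is shown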
# Yeast UUG start: modulators of yeast start codon fidelity, primary screen, whole organism, S. cerevisiae, single point, plate reader | S. cerevisiae UUG-firefly luciferase reporter, luminescence/redox ratio | activity score, % at 18.7 µM | 350,000 tested, 0.13% active;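 active means replicate mean at a twofold rise or more, about +100% in these data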;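 further: firefly luciferase made from a UUG start codon reports start codon fidelity; reporter light over untreated wells divided by growth signal over untreated wells; some hits fall short of that in this replicate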
# Numbers without * were called inactive; ? = inconclusive; [ ] = remark or other dose.
SMILES,HIV Env fusion,Yeast UUG start
O=C(NCC[C@@H]1CC[C@@H](NS(=O)(=O)c2ccc(F)cc2)[C@H](CO)O1)Nc1ccc(Cl)cc1,34.9[16.7 µM],16.5
O=C(Nc1ccc2c(c1)OCO2)N[C@H]1CC[C@H](CC(=O)N2CCN(c3ccccc3)CC2)O[C@@H]1CO,2.7[16.7 µM],5.7
CN1C(=O)c2cc(NC(=O)c3ccccc3)ccc2OC[C@@H]2O[C@H](CC(=O)NCC3CC3)CC[C@@H]21,12.3[16.7 µM],15.1
C[C@@H]1CN([C@H](C)CO)S(=O)(=O)c2ccc(Br)cc2O[C@H]1CN(C)Cc1cccc(C(=O)O)c1,-1.1[16.7 µM],8.2
O=C(NC1CCCC1)N[C@@H]1CC[C@H](CC(=O)N2CCOCC2)O[C@@H]1CO,-8.9[16.7 µM],-10.3
CC(C)NC(=O)N(C)C[C@@H]1Oc2ccc(NC(=O)CCN3CCOCC3)cc2C(=O)N([C@H](C)CO)C[C@@H]1C,-4.6[16.7 µM],5.3
Cc1ccc(-c2cnc3c(c2)C(=O)N([C@H](C)CO)C[C@@H](C)[C@@H](CN(C)C(=O)CN(C)C)O3)cc1,-4.6[16.7 µM],3.3
C[C@@H]1CN([C@@H](C)CO)C(=O)c2cc(NC(=O)Nc3cccc4ccccc34)ccc2O[C@@H](C)CCCCO[C@@H]1CN(C)C(=O)CCCN(C)C,0.3[16.7 µM],5.6
C[C@H]1CN([C@@H](C)CO)C(=O)c2cc(NS(=O)(=O)c3ccccc3)ccc2O[C@@H]1CN(C)Cc1ccc(Oc2ccccc2)cc1,26.8[16.7 µM],-0.6
C[C@H](CO)N1C[C@H](C)[C@@H](CN(C)Cc2ccc3c(c2)OCO3)Oc2ccc(NC(=O)CCCCCC(=O)Nc3ccccc3N)cc2CC1=O,1.4[16.7 µM],-10.6
COc1ccc(NC(=O)N(C)C[C@H]2Oc3ccc(NC(=O)NC4CCCCC4)cc3C(=O)N([C@@H](C)CO)C[C@H]2C)cc1,-19.4[16.7 µM],-2.9
O=C(C[C@@H]1C[C@@H]2c3cc(NC(=O)C4CCOCC4)ccc3O[C@@H]2[C@H](CO)O1)NCc1ccc(Cl)cc1,-7.2[16.7 µM],-14.0
CN1C(=O)c2cc(NC(=O)c3ccc4c(c3)OCO4)ccc2OC[C@H]2O[C@@H](CC(=O)O)CC[C@@H]21,-7.9[16.7 µM],-1.5
COCC(=O)Nc1ccc2c(c1)[C@H]1C[C@H](CC(=O)O)O[C@H](CO)[C@H]1O2,6.3[16.7 µM],8.5
C[C@@H]1CCCCO[C@H](CN(C)Cc2ccc3c(c2)OCO3)[C@@H](C)CN([C@@H](C)CO)C(=O)c2cc(NS(=O)(=O)c3ccc(F)cc3)ccc2O1,-121.1[16.7 µM],11.6
C[C@H](CO)N1C[C@H](C)[C@@H](CN(C)C(=O)CCN2CCCCC2)Oc2ncc(C#Cc3ccccc3)cc2C1=O,18.1[16.7 µM],33.8
O=C(CC1CC1)Nc1ccc2c(c1)[C@H]1C[C@H](CC(=O)NC3CCCCC3)O[C@@H](CO)[C@H]1O2,-12.3[16.7 µM],-7.8
COc1ccccc1CNC(=O)C[C@H]1C=C[C@H](NC(C)=O)[C@H](CO)O1,-10.7[16.7 µM],-15.5
COc1ccc(S(=O)(=O)N(C)C[C@@H]2OCCCC[C@@H](C)Oc3ccc(NC(=O)C4CCCCC4)cc3C(=O)N([C@H](C)CO)C[C@H]2C)cc1,-84.5[16.7 µM],10.8
CCOc1ccc(N2C(=O)CS(=O)(=O)C2c2ccccc2)cc1 (stereo not given),19.0[16.7 µM],-16.9
O=C(C[C@H]1CC[C@@H]2[C@H](COC[C@H](O)CN2C(=O)C2CCOCC2)O1)NCc1ccncc1,-7.9[16.7 µM],-11.1
CCCC(=O)Nc1ccc2c(c1)C(=O)N(C)[C@@H]1CC[C@H](CC(=O)NCCCN(C)C)O[C@H]1CO2,-6.8[16.7 µM],-13.0
CCCC(=O)Nc1ccc2c(c1)OC[C@@H](C)N(Cc1ccccc1)C[C@@H](C)[C@H](OC)CN(C)C2=O,-10.1[16.7 µM],10.3
Cc1noc(C)c1NC(=O)N(C)C[C@@H]1OCCCC[C@H](C)Oc2ccc(NS(=O)(=O)c3cccs3)cc2C(=O)N([C@H](C)CO)C[C@@H]1C,7.4[16.7 µM],1.4
CCC(=O)Nc1ccc2c(c1)OC[C@H](C)N(Cc1ccncc1)C[C@H](C)[C@@H](OC)CN(C)C2=O,17.2[16.7 µM],-8.4
N#C[C@@H]1[C@@H](c2ccc(-c3ccccc3)cc2)[C@@H](CO)N1C(=O)Cc1ccncc1,-30.4[16.7 µM],-11.8
CCCC#Cc1cnc2c(c1)C(=O)N([C@H](C)CO)C[C@@H](C)[C@H](CN(C)Cc1ccc(F)cc1)O2,13.8[16.7 µM],-8.3
CN(C)CCCNC(=O)C[C@H]1C=C[C@H](NC(=O)c2ccccc2F)[C@H](CO)O1,4.1[16.7 µM],-1.6
C[C@@H]1CCCCO[C@@H](CN(C)C(=O)Cc2ccccc2)[C@@H](C)CN([C@@H](C)CO)C(=O)c2cc(NC(=O)CCCN(C)C)ccc2O1,13.0[16.7 µM],54.3
C[C@@H]1CN([C@@H](C)CO)C(=O)c2cc(NS(=O)(=O)c3ccc(Cl)cc3)ccc2O[C@@H]1CN(C)Cc1ccccc1,0.1[16.7 µM],-1.1
CNC[C@H]1OCCCC[C@@H](C)Oc2ccc(NC(=O)Nc3cccc4ccccc34)cc2C(=O)N([C@H](C)CO)C[C@@H]1C,14.3[16.7 µM],14.3
Cc1ccc(S(=O)(=O)Nc2ccc3c(c2)C(=O)N([C@@H](C)CO)C[C@H](C)[C@H](CN(C)S(=O)(=O)c2ccccc2)OCCCC[C@@H](C)O3)cc1,-18.5[16.7 µM],-10.1
COc1ccccc1-c1ccc([C@H]2[C@@H](C#N)N(C(=O)C3CC3)[C@H]2CO)cc1,17.6[16.7 µM],1.6
Cc1ccc(-c2cnc3c(c2)C(=O)N([C@@H](C)CO)C[C@@H](C)[C@@H](CN(C)C(=O)c2ccccc2)O3)cc1,-26.6[16.7 µM],7.8
CC(C)NC(=O)N(C)C[C@@H]1OCCCC[C@H](C)Oc2ccc(NS(=O)(=O)c3cn(C)cn3)cc2C(=O)N([C@@H](C)CO)C[C@@H]1C,-35.8[16.7 µM],-3.9
C[C@@H]1CCCCO[C@H](CN(C)CC2CCCCC2)[C@H](C)CN([C@@H](C)CO)C(=O)c2cc(NS(C)(=O)=O)ccc2O1,-2.0[16.7 µM],25.1
C[C@@H]1CCCCO[C@H](CN(C)C(=O)Nc2ccc3c(c2)OCO3)[C@@H](C)CN([C@H](C)CO)C(=O)c2cc(NS(=O)(=O)c3cn(C)cn3)ccc2O1,15.8[16.7 µM],-19.9
Cc1noc(C)c1S(=O)(=O)N(C)C[C@H]1Oc2ccc(NC(=O)C3CC3)cc2CC(=O)N([C@@H](C)CO)C[C@@H]1C,-11.2[16.7 µM],4.8
O=C(Nc1ccc(F)cc1)N[C@@H]1C=C[C@@H](CC(=O)N2CCCCC2)O[C@@H]1CO,6.3[16.7 µM],-14.5
Cc1nn(C)cc1NC(=O)C[C@@H]1CC[C@H]2[C@@H](COc3ccc(NC(=O)NC(C)C)cc3C(=O)N2C)O1,16.4[16.7 µM],-7.1

# Quoted at random: two compounds from above.
SMILES,HIV Env fusion,Yeast UUG start
O=C(C[C@@H]1C[C@@H]2c3cc(NC(=O)C4CCOCC4)ccc3O[C@@H]2[C@H](CO)O1)NCc1ccc(Cl)cc1,-7.2[16.7 µM],-14.0
C[C@@H]1CCCCO[C@H](CN(C)C(=O)Nc2ccc3c(c2)OCO3)[C@@H](C)CN([C@H](C)CO)C(=O)c2cc(NS(=O)(=O)c3cn(C)cn3)ccc2O1,15.8[16.7 µM],-19.9

# (list continues)
SMILES,HIV Env fusion,Yeast UUG start
C[C@@H]1CN([C@@H](C)CO)C(=O)Cc2cc(NC(=O)Nc3ccc(F)cc3)ccc2O[C@H]1CN(C)S(=O)(=O)c1ccc(F)cc1,-7.4[16.7 µM],9.1
O=C(CCN1CCCCC1)NCC[C@@H]1CC[C@@H](NC(=O)C2CCCC2)[C@H](CO)O1,-1.0[16.7 µM],7.8
O=C(N[C@@H]1CC[C@H](CCn2cc(C3(O)CCCC3)nn2)O[C@@H]1CO)C1CCC1,29.0[16.7 µM],0.9
O=C(O)C[C@H]1C=C[C@H](NC(=O)Nc2cc(F)ccc2F)[C@@H](CO)O1,-20.9[16.7 µM],-6.9
CCCNC(=O)N(C)C[C@@H]1Oc2cc(C3=CCCC3)ccc2S(=O)(=O)N([C@H](C)CO)C[C@@H]1C,-13.1[16.7 µM],-1.9
COCC#Cc1ccc2c(c1)O[C@@H](CN(C)Cc1ccncc1)[C@H](C)CN([C@H](C)CO)S2(=O)=O,-6.2[16.7 µM],-14.7
C[C@@H]1CN([C@H](C)CO)C(=O)c2cc(-c3ccc(C#N)cc3)cnc2O[C@@H]1CN(C)Cc1cncnc1,3.7[16.7 µM],-6.9
O=C(C[C@H]1CC[C@@H](NS(=O)(=O)c2cccc(F)c2)[C@@H](CO)O1)N1CCCCC1,-27.3[16.7 µM],-5.6
C[C@@H]1CN([C@H](C)CO)C(=O)Cc2cc(N(C)C)ccc2O[C@H]1CN(C)Cc1ccc2c(c1)OCO2,-2.5[16.7 µM],3.6
CO[C@@H]1CN(C)C(=O)c2cc(NC(=O)C3CCCCC3)ccc2OC[C@H](C)N(C(=O)c2ccccc2)C[C@H]1C,16.4[16.7 µM],3.3
O=S(=O)(N[C@H]1CC[C@@H](CCn2cc(-c3cccc(F)c3)nn2)O[C@H]1CO)c1ccc(Cl)cc1,?,-4.4
C/C=C/c1ccc2c(c1)O[C@@H](CN(C)C(=O)NC1CCCCC1)[C@@H](C)CN([C@@H](C)CO)S2(=O)=O,8.5[16.7 µM],11.2
CN(C)C(=O)c1ccc(-c2ccc([C@@H]3[C@H](C#N)N(C(=O)Cc4ccccn4)[C@H]3CO)cc2)cc1,1.4[16.7 µM],-2.7
C[C@@H]1CCCCO[C@H](CN(C)Cc2ccccc2)[C@H](C)CN([C@H](C)CO)C(=O)c2cc(NC(=O)CCC(F)(F)F)ccc2O1,-29.1[16.7 µM],11.3
CCCNC(=O)Nc1ccc2c(c1)C(=O)N(C)C[C@H](OC)[C@@H](C)CN(CCC)[C@H](C)CO2,-7.9[16.7 µM],-9.9
C[C@@H]1CCCCO[C@@H](CN(C)C(=O)c2ccccc2)[C@@H](C)CN([C@@H](C)CO)C(=O)c2cc(NS(=O)(=O)c3ccc(F)cc3)ccc2O1,-22.2[16.7 µM],34.5
C[C@H](CO)N1C[C@H](C)[C@H](CN(C)C(=O)C2CCCCC2)OCCCC[C@H](C)Oc2ccc(NS(=O)(=O)c3ccc(F)cc3)cc2C1=O,-220.3[16.7 µM],7.3
CC(C)NC(=O)Nc1ccc2c(c1)C(=O)N([C@H](C)CO)C[C@@H](C)[C@H](CN(C)S(=O)(=O)c1cn(C)cn1)OCCCC[C@@H](C)O2,-41.8[16.7 µM],2.2
CN1C(=O)c2cc(NS(C)(=O)=O)ccc2OC[C@H]2O[C@H](CC(=O)NCc3ccccc3)CC[C@H]21,-3.7[16.7 µM],10.8
COc1ccc(S(=O)(=O)Nc2ccc3c(c2)CC(=O)N([C@@H](C)CO)C[C@@H](C)[C@H](CN(C)S(=O)(=O)c2ccc(Cl)cc2)O3)cc1,-16.1[16.7 µM],-3.2
C[C@H]1CN([C@@H](C)CO)C(=O)Cc2cc(NC(=O)Cn3cnnn3)ccc2O[C@@H]1CN(C)S(=O)(=O)c1ccc(F)cc1,-8.1[16.7 µM],-0.9
C[C@@H]1CN([C@H](C)CO)S(=O)(=O)c2ccc(-c3ccncc3)cc2O[C@H]1CN(C)C(=O)Nc1ccc(C(F)(F)F)cc1,8.3[16.7 µM],-12.1
C[C@H]1CN([C@@H](C)CO)C(=O)Cc2cc(NC(=O)Cn3cnnn3)ccc2O[C@H]1CN(C)S(=O)(=O)c1cccs1,9.7[16.7 µM],19.3
CO[C@@H]1CN(C)C(=O)c2ccc(NC(=O)Nc3c(C)noc3C)cc2OC[C@@H](C)N(C)C[C@@H]1C,1.3[16.7 µM],-8.4
C[C@@H]1CN([C@@H](C)CO)C(=O)CCCn2nncc2CO[C@@H]1CN(C)C(=O)C1CC1,-16.2,-1.7
C[C@H](CO)N1C[C@H](C)[C@H](CN(C)C(=O)c2ccccn2)Oc2ncc(C3=CCCC3)cc2C1=O,3.3[16.7 µM],-0.7
CNC[C@H]1Oc2cc(-c3ccc(C(=O)N(C)C)cc3)ccc2S(=O)(=O)N([C@@H](C)CO)C[C@@H]1C,-9.5[16.7 µM],-0.9
C[C@H]1CN([C@@H](C)CO)C(=O)c2cc(C#CCN(C)C)cnc2O[C@@H]1CN(C)C(=O)NC1CCCC1,-19.8[16.7 µM],2.9
CNC[C@H]1OCCCC[C@H](C)Oc2ccc(NS(=O)(=O)c3cn(C)cn3)cc2C(=O)N([C@@H](C)CO)C[C@@H]1C,-34.6[16.7 µM],30.5
CCNC(=O)C[C@H]1CC[C@H]2[C@H](COc3ccc(NC(=O)Nc4ccccc4C)cc3C(=O)N2C)O1,5.9[16.7 µM],7.1
Cc1ccc(S(=O)(=O)N[C@H]2C=C[C@H](CC(=O)O)O[C@@H]2CO)cc1,-6.4[16.7 µM],12.6
C[C@H](CO)N1C[C@H](C)[C@H](CN(C)C(=O)Nc2ccccc2)Oc2ncc(-c3cccc(C(F)(F)F)c3)cc2C1=O,0.9[16.7 µM],5.7

# 2 entries from above, with the structure last:
HIV Env fusion,Yeast UUG start,molecule
1.4[16.7 µM],-2.7,CN(C)C(=O)c1ccc(-c2ccc([C@@H]3[C@H](C#N)N(C(=O)Cc4ccccn4)[C@H]3CO)cc2)cc1
-29.1[16.7 µM],11.3,C[C@@H]1CCCCO[C@H](CN(C)Cc2ccccc2)[C@H](C)CN([C@H](C)CO)C(=O)c2cc(NC(=O)CCC(F)(F)F)ccc2O1

# Not all compounds are listed. The share of hits here may be higher or lower than overall.
